# Screening results (PubChem)
# Rango release inh = prevents RanGTP from dissociating the Rango-importin beta complex | Biochemical FRET Rango-importin beta, RanGTP-induced dissociation | Potency, µM (doses to about 46.1 µM), without a hit: top-dose activity change, negative = inhibition | 340,000 tested, 0.071% active; active means falling FRET ratio curve, often poorly fitted, with flat reads before Ran was added; inconclusive means other falling curves, or compound fluorescence or quenching; inactive means flat or rising ratio curve;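 note: potency is the fitted concentration of half-maximal effect; % of control where 0% means no effect; nearly all actives have a fitted effect of over 45% in size; -100% = wells without RanGTP and RCC1; the record marks most hits as doubtful in a second field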
#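 Rango FRET biosensor (snurportin-1 IBB flanked by N-terminal EYFP and C-terminal CFP10) at 0.1 uM, with 0.25 uM importin beta in PBS, 1mM DTT, 0.02% Tween-20, 0.1% BSA. 0.6 uM Ran, 2mM GTP and 0.2 uM RCC1 were then added for 45 min at room temperature. Inhibition read as loss of FRET rise.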
# Rango complex inh = Rango-importin beta binding inhibition. Q14974. Rango CFP/YFP FRET sensor + importin beta, 45 min. Potency, µM (series often up to 92.2 µM), inactives show at the highest dose inhibition of complex formation. 340,000 tested, 0.031% active. AID 540263; active = rising FRET ratio curve, often small or poorly fitted; inconclusive = mostly compound fluorescence or quenching in the first reads; inactive = flat curves in all reads;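 note: potency is the fitted concentration of half-maximal effect; 0% = DMSO wells and 100% = buffer wells lacking importin beta; nearly all actives have a fitted effect of over 15% in size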
#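 Inhibition scored from the CFP 486 nm/YFP 530 nm FRET ratio 45 min after adding 0.125 microM importin beta to 50 nM Rango biosensor preincubated 5 min with compound (room temperature, PBS with DTT, Tween-20, BSA). No-importin wells as positive control.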
# GLA inh pH 4.5 = blocks human alpha-galactosidase A at pH 4.5 | purified enzyme, 4-MU-alpha-Gal fluorescence, pH 4.5 | activity change, negative = inhibition, % at 105 µM | 230,000 tested, under 10 active; inconclusive = small, poorly fitted or top-dose-only inhibition, or a rising curve; inactive = flat fitted curve, though single readings scatter; no compound was filed as active;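 note: 0% = full activity with enzyme and -100% = basal without enzyme; dose as in the result columns while the protocol names 77 µM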
# Target sequence (P06280 whole entry, looked up): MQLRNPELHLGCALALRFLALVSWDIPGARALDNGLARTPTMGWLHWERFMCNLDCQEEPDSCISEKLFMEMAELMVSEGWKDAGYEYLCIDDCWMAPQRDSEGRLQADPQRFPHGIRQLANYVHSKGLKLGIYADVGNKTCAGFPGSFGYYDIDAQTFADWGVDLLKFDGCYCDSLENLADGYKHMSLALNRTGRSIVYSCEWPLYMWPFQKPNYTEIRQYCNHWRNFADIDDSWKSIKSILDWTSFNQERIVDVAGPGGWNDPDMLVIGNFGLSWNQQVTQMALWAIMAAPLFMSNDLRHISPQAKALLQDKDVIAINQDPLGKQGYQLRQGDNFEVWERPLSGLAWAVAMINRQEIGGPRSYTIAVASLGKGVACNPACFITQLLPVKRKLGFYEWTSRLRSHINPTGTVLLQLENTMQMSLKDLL
# miR-21 reporter = raises the signal of a miR-21 reporter. Potency, µM (top dose mostly 38.3 µM), for the others: at the top dose reporter change, positive = more light. 340,000 tested, under 10 active. HeLa miR-21 FLuc reporter, luciferase, 48 h; active = well fitted rising curve with a large enough effect; inconclusive = small, poorly fitted or top-dose-only effect; inactive = no such curve, though single readings can be large or run the other way;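 note: % of control where 0% means no effect; miR-21 action dims this reporter so a rising signal means less miR-21 action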
#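 Using DMEM plus 10% FBS, HeLa miR-21-FLuc cells are incubated with test compounds (final up to about 40uM) for 48 hours; firefly luciferase signal is then imaged following reagent-mediated lysis.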
# Numbers without * were called inactive; ? = inconclusive; / = no result given; & = joins results of further samples.
# Sequence of screens: Rango release inh, Rango complex inh, GLA inh pH 4.5, miR-21 reporter
> O=[N+]([O-])c1ccc2c3n([n+]([O-])c2c1)CCN=C3c1ccc(Cl)cc1
    -8%, ?, /, /
> CCCn1c(N)c(C(=O)CN2CCN(S(=O)(=O)c3cccs3)CC2)c(=O)[nH]c1=O
    2%, -0.4%, 2, -3%
> O=C(Nc1ccccc1[N+](=O)[O-])C1(c2ccccc2)CCOCC1
    0%, -0.1%, -5, -20%
> Cc1ccc(Cn2c(C)nc3c(c2=O)c2nc4ccccc4nc2n3Cc2ccco2)cc1
    -21%, -3.8%, -1, 17%
> CCCC[n+]1c(-c2ccc(Cl)cc2Cl)csc1Nc1ccccc1
    12%, 4.1%, 2, -31%
> COC(=O)c1ccc(N2CCN(C)CC2)c(NC(=O)c2ccc(Br)o2)c1
    -3%, 0.3%, /, 7%
> Cc1cc(C)c2cc(CN(Cc3ccco3)C(=S)NCC3CCCO3)c(=O)[nH]c2c1 (configuration not stated)
    2%, -4.8%, -11, -3%
> Nn1c(SCc2ccccc2)nnc1-c1ccco1
    -17%, -0.9%, 4, -19%
> CCOC(=O)C1=C(C)N(CC)C(=S)NC1c1ccc(Cl)cc1 (configuration not stated)
    1%, -2.2%, -8, 7%
> NC(=O)CC(NC(=O)Cc1ccc(Br)cc1)c1ccc(NC2CCCC2)c([N+](=O)[O-])c1 (configuration not stated)
    1%, 5.8%, 10, -3%
> COc1ccc(NC(=O)c2cccc(S(=O)(=O)N3CCOCC3)c2)cc1
    12%, -2.9%, /, -28%
> COc1cc(OC)cc(OC(=O)C2CCN(S(=O)(=O)c3ccc(OC)c(OC)c3)CC2)c1
    -4%, -0.1%, /, /
> COc1cc(OC)cc(-n2nnnc2SCC(=O)Nc2ccc(C(C)=O)cc2)c1
    -10%, 2.7%, -2, -2%
> COc1ccc(NC(=O)Cn2nc(Cc3cccnc3)c3ccccc3c2=O)cc1OC
    12%, 0.1%, 6, -2%
> COc1ccccc1[N+](=O)[O-]
    -11%, 0.8%, /, /
> COc1ccccc1Nc1nc(-c2c(C)[nH]c3ccccc23)cs1
    12µM*, ?, -2, 0%
> O=C(CSCc1ccc([N+](=O)[O-])cc1)NC1CCCCCC1
    1%, -2.8%, 2, -9%
> COc1ccc(CNC(=O)[C@H](CCSC)NC(=O)N2CCn3c2nc2ccccc23)cc1
    -3%, -2.0%, /, 1%
> CC(=O)c1cccc(NC(=O)Cn2c(=O)oc3cc(S(=O)(=O)N4CCCC4)ccc32)c1
    21%, 0.6%, 3, 5%&1%
> O=C(Nc1cccc(S(=O)(=O)N2CCOCC2)c1)c1c2c(nc3ccccc13)CCC2
    -15%, -0.6%, -7, -1%
> COc1ccc(NS(=O)(=O)c2cccc(C(=O)N/N=C/c3cccs3)c2)cc1
    1%, -1.1%, 4, -5%
> CC(=O)c1cc(C(=O)Nc2ccc(C(=O)O)cc2)oc1C
    -4%, -1.4%, 1, -4%
> Cc1ccc(S(=O)(=O)N2CCN(c3ccccn3)CC2)cc1
    5%, 0.1%, 2, 0%
> CN(C(=O)c1ccccc1C(=O)OCC(=O)c1ccc(F)cc1)c1ccccc1
    8%, 6.7%, /, /
> CCN1CC(CN(C)Cc2nc(-c3ccc(C(F)(F)F)cc3)no2)CC1=O (configuration not stated)
    -16%, 3.4%, 4, 12%
> Cc1nnc(NCc2ccccc2)c2ccccc12
    -6%, 2.7%, /, 2%
> CN(Cc1nc(-c2ccccn2)no1)S(=O)(=O)c1ccc(Cl)cc1
    7%, -4.7%, -2, -11%
> c1ccc2c(c1)CC(N1CCCCC1)c1ccccc1S2 (configuration not stated)
    1%, -3.4%, /, /
> CC(=O)N(c1cccc(C)c1)C1SC(=O)N(c2ccccc2)C1=O (configuration not stated)
    10%, 0.2%, 0, 0%
> CNc1nc(C)c(C#N)cc1C(C)=O
    -9%, -2.0%, 2, -3%

# Individual results from the results shown:
# CC(=O)c1cc(C(=O)Nc2ccc(C(=O)O)cc2)oc1C in GLA inh pH 4.5 = 1
# Cc1nnc(NCc2ccccc2)c2ccccc12 in Rango complex inh = 2.7%
# CNc1nc(C)c(C#N)cc1C(C)=O in Rango release inh = -9%

# Single records (already shown). Screens in order: Rango release inh	Rango complex inh	GLA inh pH 4.5	miR-21 reporter
# Cc1cc(C)c2cc(CN(Cc3ccco3)C(=S)NCC3CCCO3)c(=O)[nH]c2c1 (configuration not stated) in the list: 2%	-4.8%	-11	-3%
# c1ccc2c(c1)CC(N1CCCCC1)c1ccccc1S2 (configuration not stated) in the list: 1%	-3.4%	/	/
# COc1cc(OC)cc(-n2nnnc2SCC(=O)Nc2ccc(C(C)=O)cc2)c1 in the list: -10%	2.7%	-2	-2%
# COc1ccc(NS(=O)(=O)c2cccc(C(=O)N/N=C/c3cccs3)c2)cc1 in the list: 1%	-1.1%	4	-5%
# Cc1nnc(NCc2ccccc2)c2ccccc12 in the list: -6%	2.7%	/	2%

# The results go on:
# Sequence of screens: Rango release inh, Rango complex inh, GLA inh pH 4.5, miR-21 reporter
> CCOC(=O)c1c(C)[nH]c(C)c1S(=O)(=O)N1CCOCC1
    7%, -0.1%, /, -1%
> Cc1ccn2c(=O)c(NC(=O)c3cccc4ccccc34)c(C)nc2c1
    -3%, 1.1%, /, /
> CC(=O)c1cccc(N(CC(=O)NCCc2ccccc2)C(=O)c2csnn2)c1
    11%, -2.2%, /, 8%
> CC(OC(=O)c1ccc(O)cc1)C(=O)Nc1cc(C(F)(F)F)ccc1Cl (configuration not stated)
    -1%, 3.0%, -14, ?
> C/C(=N\Nc1ccc(S(=O)(=O)N2CCCCC2)cn1)c1cccc(Br)c1
    -6%, -1.1%, /, /
> Nc1ncnc(Nc2cc(Cl)cc(Cl)c2)c1[N+](=O)[O-]
    51%, 0.0%, 0, 0%
> Cc1ccc(C(=O)Cn2ncsc2=N)cc1
    6%, 1.9%, -1, -45%
> COc1cc2c(cc1OC)-c1cc(NC3CC3)nc(=O)n1CC2
    1%, -2.5%, 9, -8%
> CNCC(O)Cn1c(C(F)(F)F)nc2ccccc21 (configuration not stated)
    -9%, -5.2%, 0, -18%
> Clc1ccc(C2=NCCn3nc4ccccc4c32)cc1
    -19%, ?, /, /
> COc1cccc(NC(=O)COC(=O)c2c(C)noc2C)c1
    -15%, 1.5%, /, /
> CN(Cc1ccccc1)Cc1nc2c([nH]1)c(=O)[nH]c(=O)n2C
    -12%, -4.9%, -2, -10%
> CC(=O)N(C1CC(C)C(C#N)(C#N)C1(C#N)C#N)N(C)C (configuration not stated)
    -12%, -1.9%, -1, ?
> CCc1nc(Nc2ccccc2)c2oc3ccccc3c2n1
    -3%, -3.3%, 1, -2%
> CCN(CC)CCCNC(=O)CNC(=S)N(CCCN1CCOCC1)Cc1cccs1
    3%, -2.0%, 10, 1%

# Structures above containing bromine:
# Sequence of screens: Rango release inh, Rango complex inh, GLA inh pH 4.5, miR-21 reporter
> COC(=O)c1ccc(N2CCN(C)CC2)c(NC(=O)c2ccc(Br)o2)c1
    -3%, 0.3%, /, 7%
> NC(=O)CC(NC(=O)Cc1ccc(Br)cc1)c1ccc(NC2CCCC2)c([N+](=O)[O-])c1 (configuration not stated)
    1%, 5.8%, 10, -3%
> C/C(=N\Nc1ccc(S(=O)(=O)N2CCCCC2)cn1)c1cccc(Br)c1
    -6%, -1.1%, /, /

# More structures.
canonical_smiles	Rango release inh	Rango complex inh	GLA inh pH 4.5	miR-21 reporter
N#C/C(=C(/O)COC(=O)CCc1ccc(S(=O)(=O)N2CCOCC2)cc1)c1nc2ccccc2[nH]1	?	?	1	14%
C/C(=N\NC(=O)c1ccc(N/N=C(\C)c2ccncc2)cc1)c1ccncc1	1%	-3.0%	-12	1%
Cc1cccc(NC(=O)C2CC(=O)OC23CCCC3)c1 (configuration not stated)	0%	-1.1%	-3	0%
O=C(Nc1ccc(Cl)cc1)C1=Cc2cc(Cl)ccc2OC1	-2%	-0.2%	2	-10%
COc1ccc(-n2c(SCC(=O)NC3CC3)nc3ccccc3c2=O)cc1OC	-20%	3.6%	/	/
O=C(Nc1ccc(Br)cc1C(=O)O)c1ccc2c(c1)C(=O)N(Cc1ccccc1)C2=O	-2%	5.6%	/	-19%
Fc1ccccc1N1CCN(c2ncnc3nc[nH]c23)CC1	-6%	-1.6%	-2	-8%
CCc1cccc(C)c1NC(=O)C(c1ccc(O)cc1)N1CCC1=O (configuration not stated)	-9%	0.1%	2	-4%
Cc1ccc(CS(=O)Cc2ccc(C(=O)NCc3ccc(OC(C)C)cc3)o2)cc1 (configuration not stated)	-4%	?	/	5%
CC(=O)NC1C(Oc2cccc(C)c2)OC2COC(c3ccco3)OC2C1O (configuration not stated)	12%	4.4%	-8	-8%
CC(=O)NC(=S)NNC(=O)C(c1ccccc1)c1ccccc1	14%	3.5%	1	-2%
CC1CN(C(=O)c2ccccc2OCc2ccccc2Cl)CC(C)O1 (configuration not stated)	-14%	0.9%	/	/
O=C(Cc1ccccc1[N+](=O)[O-])NCCCc1ccccc1	3%	-1.8%	/	-26%
Cc1ccc(S(=O)(=O)N2CC=C(c3c(C)n(C)c4ccccc34)CC2)cc1	-29%	?	5	-3%
COc1ccc(NC2CCCN(C(=O)CN3C(=O)c4ccccc4C3=O)C2)cc1OC (configuration not stated)	-9%	-0.7%	/	-2%
CCOC(CNC(=O)c1cccn2c(=O)c3cc(Cl)ccc3nc12)OCC	?	?	0	14%
O=c1cnnc(Nc2ccccc2)[nH]1	-24%	1.4%	-2	0%
Cc1c(F)cccc1NS(=O)(=O)c1ccc2c(c1)n(C)c(=O)c(=O)n2C	10%	-1.9%	/	-1%
CCOC(=O)c1ccc(NC(=O)C2COc3ccccc3O2)cc1 (configuration not stated)	-16%	-0.1%	/	-26%
CC(OC(=O)CN1C(=O)NC2(CCCC2)C1=O)C(=O)Nc1cccc(Cl)c1 (configuration not stated)	6%	0.4%	/	2%
CC(C)N(C(=O)Cn1c(SCC(=O)N2CCN(c3ccccc3)CC2)nc2ccccc21)C(C)C	-2%	-2.1%	-18	3%
COc1ccc(-c2cc3c(nn2)-c2ccccc2C3=O)cc1	-1%	3.8%	5	-12%
CC1OC(OC2C(CO)OC(OCC3OC(OC(=O)[C@@]45CCC(C)(C)C[C@@H]4C4=CC[C@@H]6[C@@]7(C)CCC(OC8OCC(O)C(O)C8OC8OC(C)C(O)C(O)C8O)[C@@](C)(CO)C7CC[C@@]6(C)[C@]4(C)CC5)C(O)C(O)C3O)C(O)C2O)C(O)C(O)C1O (some centres not stated)	-9%	0.2%	/	/
O=C(CSc1nc(=O)n2ccccc2n1)Nc1ccc2c(c1)OCCO2	2%	-2.4%	/	/
O=C(O)c1cccc(S(=O)(=O)Nc2ccc([N+](=O)[O-])cc2O)c1	-11%	0.0%	-9	0%
CCOc1ccc(CCN2C(=O)CCC2(C)C(=O)NC(C)CC)cc1OCC (configuration not stated)	-3%	0.3%	9	-4%
CC1CN(S(=O)(=O)c2cc(C(=O)N(CCc3ccccc3)Cc3ccccc3)ccc2Cl)CC(C)O1 (configuration not stated)	30%	-3.7%	/	/
CC(C)CC(=O)N1CCN(c2ccc([N+](=O)[O-])c(NCc3ccccc3)c2)CC1	14%	0.8%	/	/
NC(=S)N/N=C\c1ccccc1OCc1ccccc1	1%	1.7%	3	20%
O=[N+]([O-])c1ccc(N2CCN(c3ccc(Cl)nn3)CC2)c(Cl)c1	0%	-1.8%	4	0%
O=C(CSc1nnc(Cn2c(=O)sc3ccccc32)n1-c1ccccc1)NCc1ccco1	7%	0.1%	-2	-1%
Cc1ccc(CNC(=O)Cn2c(=O)c3sccc3n(Cc3cccc([N+](=O)[O-])c3)c2=O)cc1	/	/	-6	0%
CCCCN(C(=O)NC(=O)Nc1cc(C)ccc1C)S(C)(=O)=O	-4%	1.7%	-2	5%
CC1(NC(=O)CCS(=O)(=O)c2ccc(Cl)cc2)CCS(=O)(=O)C1 (configuration not stated)	10%	-5.6%	/	/
CCOC(=O)c1c[nH]n(-c2ccc(C)cc2)c1=O	13%	-5.2%	0	-37%

# These rows are one share of the data, so the mix of outcomes need not match the whole.
